# VACV Venus inh: qHTS for Stage-Specific Inhibitors of Vaccinia Orthopoxvirus: Venus Reporter Primary qHTS. Vaccinia virus Venus reporter expression, fluorescence. Potency, µM (doses to about 36.5 µM), inactives show at the top dose activity change, negative = inhibition, hits mostly inhibitors. hit rate 0.46% among 330,000; active means well fitted inhibition curve with a large enough effect; inconclusive means small, poorly fitted or top-dose-only effect; inactive means no such curve, though single readings can be large or run the other way; tested in A549 cells; also: nearly all actives have a fitted effect of over 30% in size; inactives centre near -10
# VACV mCherry inh: qHTS for Stage-Specific Inhibitors of Vaccinia Orthopoxvirus: mCherry Reporter Primary qHTS; hit rate 0.63% among 310,000; Potency, µM (highest dose often 36.5 µM), for the others: at the highest dose activity change, negative = inhibition, hits mostly inhibitors; Vaccinia virus mCherry reporter infection, fluorescence; about a quarter of the inactives have no number; AID 720579, 2013; active = well fitted inhibition curve with a large enough effect; inconclusive = small, poorly fitted or top-dose-only effect; inactive = no such curve, though single readings can be large or run the other way; tested in A549 cells; also: nearly all actives have a fitted effect of over 35% in size; inactives centre near -10
# * = called active by the depositor; i = inactive; u = inconclusive; x = not tested or not shown; & = joins results of further samples. % is scaled to controls: 0 for no effect and ±100 for the full control effect; potency is read from the fitted curve at half-maximal effect.
# Screens in order – VACV Venus inh	VACV mCherry inh
CCOc1ccc(-n2c(SCc3cc(=O)oc4cc(C)ccc34)nnc2-c2cccnc2)cc1
  -18.7%	-25.9%
COC(=O)C1=C(C)N(Cc2ccccc2)C(=NCCc2ccccn2)N[C@H]1c1cccc(C(F)(F)F)c1
  u	-17.8%&-24.3%
Cc1occc1C(=O)Nc1cccc(-c2nc(CNC(=O)c3ccc(N4CCCCC4)cc3)c(C)o2)c1
  -2.7%	-10.0%
CCOc1ccc(NS(=O)(=O)c2ccc(NC(=O)c3ccccc3C(=O)O)cc2)cc1
  -5.6%	i
Cn1c(CNC(=O)c2ccco2)nnc1SCC(=O)Nc1c(F)cc(F)cc1Br
  -7.6%	-20.7%
O=C(Nc1ccc(F)c(F)c1)c1cnn2c1NC(=C1CC1)C=C2C(F)(F)F
  -17.7%	-19.4%
Cc1c(NC(=O)Nc2ccc(Cl)c(Cl)c2)sc(=S)n1C
  u	u
O=C(NCc1nc2ccccc2[nH]1)C1=C[C@@H](c2csc3ccccc23)C[C@@H](OCCCCO)O1
  u	-10.9%
Cc1nc(Nc2ccc(S(=O)(=O)N3CCCCC3C)cc2)c2nnn(Cc3ccccc3)c2n1 (configuration not stated)
  -10.1%	i
CCc1cccc(C)c1NS(=O)(=O)c1c(C(=O)N2CCC(C)CC2)c(C)n(C)c1C
  -14.6%	i
COCCn1c(-c2ccc(OC)cc2)cnc1SCC(=O)Nc1cc(C)on1
  -29.6%	-9.0%
CCOC(=O)c1ccc(NC(=S)Nc2ccccc2)cc1
  -15.8%	i
CC(C)(C)CC(=O)Nc1ccc(-c2cn3cccnc3n2)cc1
  -14.3%	-4.5%
CCNC(=O)C1(C)CCCN(C(=O)c2nc(C)oc2C)C1 (configuration not stated)
  -8.3%	-12.9%
COC1=CC23CCCN2CCc2cc4c(cc2C3C1O)OCO4 (configuration not stated)
  -17.3%	-6.0%
COc1ccc(S(=O)(=O)c2nnn(-c3cccc(Cl)c3)c2N)cc1
  -3.9%	-6.7%
CN(C)c1ccc(NC(=O)Nc2cccc3ccccc23)cc1
  -2.7%	u
O=C(CSc1ccc2ccccc2n1)NC1CC1
  -8.7%	-7.7%
Cc1cc(N2CC(C)OC(C)C2)nc2ccccc12 (configuration not stated)
  -18.5%	-18.2%
CC(=O)N1CCC2(CC1)OC(=O)C(C)=C2C(=O)Nc1cccc(Cl)c1C
  -13.0%	-7.7%
OCC[C@H]1C[C@@H](O)[C@H](O)[C@@]2(Cc3ccccc3CO2)O1
  -0.7%	i
Cc1nc2nc(COc3ccccc3)nn2c(C)c1Cl
  -11.3%	i
Cc1ccc(-c2nn3c(C)nnc3s2)cc1NC(=O)c1ccc(Br)o1
  -4.9%	-4.8%
COC(=O)c1nc2n(n1)C(c1ccc([N+](=O)[O-])cc1)C(C(=O)Nc1ccc(Cl)cc1)=C(C)N2 (configuration not stated)
  5.6%	-5.7%
CCOc1ccc(NC(=O)COc2cccc3cccnc23)cc1S(=O)(=O)N1CCCC1
  -18.9%	-5.5%
Cn1cnc([N+](=O)[O-])c1Nc1cccc(O)c1
  1.5%	i
O=C(OCCc1cc2ccccc2c(=O)o1)c1ccccc1C(F)(F)F
  -20.7%	i
CC(=O)Nc1ccc(S(=O)(=O)N(C)c2ccc(O)cc2)cc1
  -7.0%	-21.3%
CC1CC(C)CN(C(=O)c2cc(-c3ccncc3)nc3ccccc23)C1 (configuration not stated)
  -7.4%	-3.7%
Cn1nc(-c2ccc(N3CCOCC3)c(NS(=O)(=O)c3ccccc3)c2)c2ccccc2c1=O
  -10.9%	i
CCOC(=O)C(CC)/C(C)=N/NC(=O)c1ccc([N+](=O)[O-])cc1 (configuration not stated)
  7.5%	-14.4%
C/C(=N\NC(=O)c1nn(C)cc1Br)c1cccc(NC(=O)C(C)(C)C)c1
  -13.1%	-21.3%
CN1CCc2cccc(Cl)c2CC1
  4.3%	-12.4%
CCC(=O)C1CCCN(C(=O)c2ccc(OC3CCN(C(=O)CCOC)CC3)cc2)C1 (configuration not stated)
  -9.1%	-16.2%
Cc1cc(C)nc(SCC(CSc2nc(C)cc(C)n2)C(=O)O)n1
  -7.6%	-19.1%
CCOc1ccc(CN(C(=O)c2oc3ccccc3c2C)C2CCS(=O)(=O)C2)cc1 (configuration not stated)
  -14.4%	-26.2%
Cc1ccccc1C(=O)NNC(=O)Cc1cccc2ccccc12
  -19.2%	-18.3%
O=C1CCCCN1CC(=O)N1CCCC(Nc2ccc(F)cc2)C1 (configuration not stated)
  -9.7%	-24.9%
C=CCNc1ncnc2c1ncn2[C@H]1CN(Cc2cccc3ccccc23)C[C@@H](CO)O1
  -20.4%	-12.7%
O=C(CCc1ccccc1)Nc1cc2c(cc1Cl)OCCO2
  -13.6%	-1.9%
CN(CC(O)COc1c(F)cc(Br)cc1F)C1CCCCC1 (configuration not stated)
  -4.2%	-12.8%
COc1ccccc1CNC(=O)COC(=O)c1ccc(NC(N)=O)cc1
  7.5%	x
COc1ccc(NC2=NCCC(=O)N2Cc2cccs2)cc1
  -12.0%	-9.3%
CCOC(=O)C1=C(COC(=O)/C=C/c2ccc(OCC)c(OC)c2)NC(=O)NC1C (configuration not stated)
  -9.3%	i
CC(=C/c1ccccc1)/C=N/NC(=O)c1nnn(-c2nonc2N)c1CN1CCC(C)CC1
  -13.1%	-21.0%
COc1ccc(CNc2cc([N+](=O)[O-])ccc2OC)cc1
  -6.1%	i
O=C(OCC(=O)c1ccc(Cl)s1)c1ccc2ccccc2n1
  0.3%	i
O=C(CS(=O)(=O)c1c[nH]c2ccccc12)N1CCCCCC1
  -4.6%	-17.8%
COc1ccc2[nH]c(=O)c(CN(Cc3ccc(C)cc3)Cc3nnnn3CC3CCCO3)cc2c1 (configuration not stated)
  -23.0%	x
COc1ccc(-c2csc(NC(=O)C3CCCO3)n2)cc1 (configuration not stated)
  -7.2%	-2.2%
Cc1cccc(N2C(=O)/C(=C/c3ccc(CN(CCC#N)S(C)(=O)=O)o3)C(=O)NC2=S)c1
  25.1%	x
COc1cc(-c2coc3c(C(=O)NCc4ccc(C(F)(F)F)cc4)cccc23)ccc1O
  -9.5%	15.5%
CC1(C)Cc2c(sc(/N=C/N3CCCCC3)c2C#N)C(C)(C)N1
  -15.6%	-20.9%
c1coc(C2Nc3ccccc3C3OCCC23)c1 (configuration not stated)
  -6.3%	-11.7%
COc1ccc(/C=C/C(=O)OCc2csc(-c3ccccc3)n2)cc1OC
  -16.0%	-13.4%
CCCCCCN1C[C@H](n2cc(COC(=O)c3ccccc3)nn2)[C@@H](O)C[C@@H]1c1ccc(OC)cc1
  -14.1%	-4.2%
Cc1ccc(CNC(=O)c2cccc(S(C)(=O)=O)c2)cc1
  -10.9%	-7.3%
Cc1ccc(C(C)NC(=O)c2cc(C)oc2C)cc1 (configuration not stated)
  3.0%	-13.8%
CN1C(=S)SC(N2OC3C(=O)N(c4ccccc4)C(=O)C3C2c2ccc(Cl)cc2)C1(C)C (configuration not stated)
  -15.3%	i
COc1cc2c(cc1OC)/C(=C/c1ccc(Cl)cc1)C(=O)OC2
  -2.9%	i

# Following part:
# Screens in order – VACV Venus inh	VACV mCherry inh
O=C(c1ccc(Br)cc1)N(Cc1ccco1)C1CCS(=O)(=O)C1 (configuration not stated)
  -14.0%	-11.4%
CC1Cc2ccccc2N1C(=S)NC(=O)c1cccc(Br)c1 (configuration not stated)
  -24.1%	i
CC1CCN(C(=O)CSc2n[nH]c(-c3ccc(F)cc3)n2)CC1
  -8.4%	-14.3%
Cc1cc2n(n1)CCC(=O)N2Cc1ccc(C(=O)Nc2cc(Cl)ccc2C)cc1
  -4.1%	-7.1%
COc1cccc(S(=O)(=O)N(C)C[C@H]2OCc3cnnn3CCCC(=O)N([C@@H](C)CO)C[C@@H]2C)c1
  -8.3%	-10.6%
COC(=O)c1cccc(CN2C(=O)SC(Nc3ccc(Cl)cc3)C2=O)c1 (configuration not stated)
  -11.9%	-4.8%
CC1(C(=O)NC2CCCCC2)Cc2ccccc2C(=O)N1Cc1ccccc1Cl (configuration not stated)
  -17.4%	-13.3%
COc1ccc(-c2noc(C(C)NS(=O)(=O)c3ccc(NC(C)=O)cc3)n2)cc1 (configuration not stated)
  -12.9%	i
O=C1NCN(c2ccccc2)C12CCN(C(c1cccc3ccccc13)c1nnnn1C1CCCC1)CC2 (configuration not stated)
  -20.6%	-17.2%
CCCC(=O)N1CCC1(C)C(=O)Nc1ccc2scnc2c1 (configuration not stated)
  -1.4%	-4.7%
COc1ccc(-c2cc(C(F)(F)F)n3nc(C(=O)OC(C)C)cc3n2)cc1
  -13.2%	-15.6%
CN(C)S(=O)(=O)N(CC(=O)NCCSCc1ccc(Cl)cc1)c1ccccc1
  -21.6%	-6.1%
O=C(COC(=O)/C=C/c1ccc([N+](=O)[O-])cc1)NCc1ccc2c(c1)OCO2
  -9.9%	-24.1%
CC(=O)N1CCc2cc(S(=O)(=O)CCC(=O)N3CCN(C(=O)c4ccco4)CC3)ccc21
  -9.9%	-2.0%
CCOc1ccc(Nc2nc3cc(S(=O)(=O)CC)ccc3o2)cc1
  -9.6%	u
CN1CCN(C(=O)CCCN2C(=O)/C(=C/c3ccccc3)SC2=S)CC1
  -1.1%	u
CCCCCCn1cc(CN2CC(N(C)CCC)CS2(=O)=O)nn1 (configuration not stated)
  1.0%	i
COc1ccc(C2NC(Cc3ccccc3)(C(=O)O)C3C(=O)N(c4ccccc4OC)C(=O)C23)cc1 (configuration not stated)
  -13.4%	i
CCNC(=O)c1sc2cc(C)ccc2c1Cl
  0.8%	i
COC(=O)c1cn(NC(=O)/C=C/c2ccc(OC)c(OC)c2)c(=O)c2ccccc12
  -2.9%	-12.0%
C=CCOc1cccc(C2C(C(=O)c3ccco3)=C(O)C(=O)N2CCN2CCOCC2)c1 (configuration not stated)
  -10.4%	i
Cc1onc(-c2ccccc2Cl)c1C(=O)NCCn1ccc2ccccc21
  -3.2%	x
CC(=O)NCc1nc2cccnc2n1Cc1ccccc1
  -6.4%	-11.8%
COc1ccc(C(C)NC(=O)C2CCCC2)cc1 (configuration not stated)
  -7.3%	i
CC1(C)Cc2c(C#N)c(N3CCN(C(=O)c4ccccc4Cl)CC3)nc(-c3ccco3)c2CS1
  -7.1%	x
C#CCOCCOCCOCCNc1nc(N2CCN(C(=O)[C@H](C)n3cc(CCCN=C(N)N)nn3)CC2)nc(N2CCN(C(=O)[C@H](C)n3cc(CCCN=C(N)N)nn3)CC2)n1
  -2.8%	i
CCc1ccc(NC(=O)CSc2nc(C)c(C(=O)Nc3ccc(Cl)cc3)c(-c3ccc(OC)cc3)c2C#N)cc1
  -4.5%	-10.0%
O=C(c1ccco1)N1CCN(c2cc(=O)n(C3CCCCC3)c(=O)[nH]2)CC1
  -5.0%	x
COc1cc(SC)ccc1C(=O)Nc1nc2ccccc2[nH]1
  -15.2%	-21.9%
N#Cc1ccccc1CSc1ccc(-c2nc3ccccc3[nH]2)cn1
  0.0%	-3.7%
CSC(=S)N/N=C/c1c[nH]c2ccccc12
  -12.5%	-14.6%
CCN(CC)c1ccc(/C=N/n2c(-c3ccccc3Br)n[nH]c2=S)cc1
  -15.5%	-25.6%
O=C(NCC1CC1)Nc1ccccc1
  -6.0%	i
O=C(NC(=S)Nc1ccc2nc[nH]c2c1)c1ccccc1
  -12.8%	i
O=C1ON=C(c2ccccc2)/C1=C/c1ccc(-c2ccccc2[N+](=O)[O-])o1
  -25.6%	-28.2%
CC1(C(=O)NNC(=S)NCC2CCCO2)CC1(Cl)Cl (configuration not stated)
  -8.1%	-18.8%
CCOC(=O)/C=c1/s/c(=C/c2ccccc2OC)c(=O)n1CC(=O)N1CCOCC1
  -13.3%	-3.4%
Cc1cccc(N=Nc2c(C)[nH]n(-c3ccccc3)c2=O)c1
  -3.2%	1.8%
COc1cccc(C(=O)NCC(c2ccc3c(c2)OCO3)N2CCN(c3ccc(F)cc3)CC2)c1 (configuration not stated)
  -28.2%	-7.9%
Cc1noc(C)c1CSCC(=O)Nc1ccc(S(=O)(=O)C(F)F)cc1
  -4.8%	-8.7%
COc1ccc(-c2nc(C)c(CCNS(=O)(=O)c3ccc(F)cc3)s2)cc1OC
  -24.4%	u
O=S1(=O)CCO[C@H]2Cc3ccccc3[C@H]2N1Cc1ccccc1
  -9.6%&-12.2%	i
COc1cccc(NC(=O)C2CC(=O)N(C)C(=Nc3cccc(F)c3)S2)c1 (configuration not stated)
  -26.5%	-9.8%
C=CCn1c(SCC(=O)N2CCOCC2)nc2sc(CC)cc2c1=O
  -24.4%	-21.2%
O=C(/C=C/c1ccc2c(c1)S(=O)(=O)N(Cc1ccccc1)[C@H]2CC(=O)N1CCOCC1)N1CCOCC1
  -9.9%	i

# Filtered by structure, those above containing a COOH group.
# Screens in order – VACV Venus inh	VACV mCherry inh
CCOc1ccc(NS(=O)(=O)c2ccc(NC(=O)c3ccccc3C(=O)O)cc2)cc1
  -5.6%	i
Cc1cc(C)nc(SCC(CSc2nc(C)cc(C)n2)C(=O)O)n1
  -7.6%	-19.1%
COc1ccc(C2NC(Cc3ccccc3)(C(=O)O)C3C(=O)N(c4ccccc4OC)C(=O)C23)cc1 (configuration not stated)
  -13.4%	i

# Compound activity as filed in PubChem.
